Arbovirus anti: antivirals against arbovirus infection; arbovirus infection cell-based antiviral screen; 0.37% of 200,000 active; inhibition, % at 10 µM;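 active means inhibition from about 30%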;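 further: bluetongue infection of BSR cells; cell survival read as ATP light after 72 h; 0% = infected wells without compound and 100% = uninfected wells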
Mtb H37Rv: M. tuberculosis H37Rv growth inhibitors, H37Rv strain (AID 1626); inhibition, % at 10 µM, or IC50 in µM where a hit was titrated; 0.95% of 220,000 active; M. tuberculosis H37Rv growth inhibition; higher % means a stronger effect;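 active means confirmed in a dose series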;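 further: bacteria incubated seven days before Alamar blue readout; 0% = bacteria only wells and 100% = bacteria with antibiotic wells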
Mtb bLac sens: beta-lactam sensitization of Mtb H37Rv. M. tuberculosis H37Rv growth with meropenem, percent inhibition; hits of this screen are not shown here. inhibition, % at 25 µM. 0.27% of 330,000 active. AID 434955;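 active means about 74% or more and at least 40 points above the plate without the antibiotic, then above 30% in a dose series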;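 further: growth measured after seven days incubation then overnight dye step; 0% = bacteria only wells and 100% = bacteria with antibiotic; twin plates without the antibiotic show which effects depend on it; some results filed as inactive read as strong as hits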
RecA intein inh: inhibitors of M. tuberculosis RecA intein splicing; 0.75% of 290,000 active; cell-free RecA intein splicing, fluorescence; inhibition, %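 (about 9 µM by stock and volumes)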; AID 2221; P9WHJ3; in the data active means inhibition above about 30%;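 further: 0% = vehicle wells and 100% = reference inhibitor control wells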
Target sequence (P9WHJ3 whole entry, looked up): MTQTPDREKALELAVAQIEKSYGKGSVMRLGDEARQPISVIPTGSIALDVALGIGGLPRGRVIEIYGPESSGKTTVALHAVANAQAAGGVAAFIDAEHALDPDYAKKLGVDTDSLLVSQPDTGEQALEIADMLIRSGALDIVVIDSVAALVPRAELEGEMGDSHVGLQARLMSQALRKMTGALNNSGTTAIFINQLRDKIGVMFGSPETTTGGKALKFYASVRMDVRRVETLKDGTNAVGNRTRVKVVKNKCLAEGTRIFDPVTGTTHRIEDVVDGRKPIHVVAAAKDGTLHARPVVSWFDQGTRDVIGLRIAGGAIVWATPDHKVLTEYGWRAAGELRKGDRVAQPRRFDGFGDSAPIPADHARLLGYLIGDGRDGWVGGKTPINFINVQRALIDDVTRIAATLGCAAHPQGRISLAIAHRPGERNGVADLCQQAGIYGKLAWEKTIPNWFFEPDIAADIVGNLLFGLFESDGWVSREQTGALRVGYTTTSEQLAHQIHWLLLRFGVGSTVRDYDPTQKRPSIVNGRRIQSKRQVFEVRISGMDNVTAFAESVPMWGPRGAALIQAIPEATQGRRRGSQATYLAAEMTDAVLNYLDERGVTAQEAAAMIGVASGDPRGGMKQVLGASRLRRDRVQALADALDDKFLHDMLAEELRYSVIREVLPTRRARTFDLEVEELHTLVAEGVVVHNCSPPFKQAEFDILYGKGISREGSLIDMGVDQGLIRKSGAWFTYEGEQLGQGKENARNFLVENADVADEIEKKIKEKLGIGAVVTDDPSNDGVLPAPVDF
YopH inh: blocks Yersinia enterocolitica YopH tyrosine phosphatase | fluorescence Ex485/Em525 | inhibition, %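 (about 10 µM by stock and volumes)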 | 0.16% of 140,000 active | AID 898;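 active means inhibition of 50% or more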;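 further: controls were vehicle for no effect and minimum signal wells for full effect; inactives centre near -20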
Arbovirus anti repeat: second read-out of Arbovirus anti, no call of its own (marks repeat the call); inhibition, %; measured here: 10K subset replicate screen; many hits read low in the repeat;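 first of two repeat runs on a subset; 0% = infected and 100% = uninfected wells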
An asterisk follows results filed as active; x = no result given. The list is partial; rates above refer to the full screens.

SMILES | Arbovirus anti | Mtb H37Rv | Mtb bLac sens | RecA intein inh | YopH inh | others
COc1ccc(CC(=O)NC2CC(C)(C)NC(C)(C)C2)cc1OC | x | x | 2 | 1.7 | x
CCOC(=O)c1c(C2CC2)csc1NC(=O)CSCc1c(C)noc1C | 2 | -4% | 40 | -2.4 | 3
COc1ccc([N+](=O)[O-])cc1NC(=O)C(C)N(C)Cc1ccc(Br)cc1 (centres undefined) | -7 | 2% | -5 | -0.3 | -18
CC(CN1C(C)CCCC1C)OC(=O)c1ccccc1Br (centres undefined) | x | x | 0 | -1.0 | x
Cn1c(=O)[nH]c(=O)c2c1nc(NCCc1ccccc1)n2CC(O)COc1ccccc1 (centres undefined) | 7 | 2% | -16 | 1.5 | -9
CC(C)(C)NC(=O)C(c1cccs1)N(Cc1cccs1)C(=O)c1csnn1 (centres undefined) | 2 | -5% | -9 | 0.0 | x
Oc1ccc(C(c2nnnn2C2CCCC2)N2CCc3ccccc3C2)cc1 (centres undefined) | 17 | 1% | 1 | 9.7 | -27
COc1ccc(C)cc1S(=O)(=O)N(CC(=O)O)c1ccc(C)cc1 | 9 | -7% | 2 | -9.9 | -23
CN(CC(=O)Nc1ccc(Cl)c(C(F)(F)F)c1)C(=O)C1CSC2(C)CCC(=O)N12 (centres undefined) | x | x | 2 | 6.3 | x
O=C(NCc1ccco1)c1ccc(-c2ccc(Cl)cc2)o1 | 13 | 46% | 70 | 0.7 | x
COc1cccc(NC(=O)C2CCN(S(=O)(=O)c3ccc4[nH]c(=O)oc4c3)CC2)c1 | x | x | 1 | -2.4 | x
O=C(CCCN1C(=O)S/C(=C\C=C\c2ccccc2)C1=O)Nc1ccc(C(=O)O)cc1 | x | x | -1 | 30* | x
COc1ccc(S(=O)(=O)N2CCCCC2)cc1NC(=O)C1CC(=O)N(c2ccc3c(c2)OCCO3)C1 (centres undefined) | x | x | -11 | 0.0 | x
NCCCCCCNS(=O)(=O)c1cccc2c(Cl)cccc12 | x | -5% | 0 | -1.8 | x
Cc1ccc(CN2CCNC(=O)C2CC(=O)N(C)Cc2cnccn2)cc1 (centres undefined) | x | x | -1 | 0.4 | x
COC(=O)C(Cc1ccc(O)cc1)NC(=O)C(C)Oc1ccccc1 (centres undefined) | 16 | 3% | -2 | -4.0 | 5
CCc1cc2cc(C)c(C)cc2nc1SCC(=O)Nc1cc(C)on1 | -17 | -9% | 2 | 0.5 | x
CCOc1ccc(C(=O)COC(=O)CC)cc1 | 10 | 16% | -5 | 3.5 | -24
CCOc1ccc(Oc2nc(C)cc(OC)n2)nn1 | 8 | 0% | 10 | 3.4 | -16
CCN(c1ccccc1)S(=O)(=O)c1ccc(NC(=O)c2nc(S(C)(=O)=O)ncc2Cl)cc1 | x | x | -1 | 2.7 | x
Cc1cc(NC(=O)COC(=O)C2CC(=O)N(c3ccccc3Cl)C2)no1 (centres undefined) | x | x | 1 | -0.8 | x
CCOc1ccc2nc3c(cc2c1)CN(CCOC)C(=NCCOC)S3 | 5 | -3% | 8 | -1.0 | -3
COc1cc(NC(=O)CSCc2ccc(Cl)cc2Cl)c(C(=O)O)cc1OC | x | x | 7 | -0.7 | x
CC1(C)CC(=O)C(C=NCCN2CCN(C(=O)C34CC5CC(CC(C5)C3)C4)CC2)=C(O)C1 | x | 1% | -11 | 2.4 | x
O=C(OCN1C(=O)c2ccccc2C1=O)c1cccnc1SC(F)F | x | x | -1 | -3.4 | x
C/C(CC(=O)Nc1ccc(C)c(Cl)c1)=N\NC(=O)C1CCCCC1 | x | x | 59 | 1.8 | x
O=C(CC1Oc2ccccc2NC1=O)NCCCN1CCN(Cc2ccccc2)CC1 (centres undefined) | -7 | 4% | 7 | 1.1 | -56 | Arbovirus anti repeat=7
CCC(C)C(=O)Nc1nc(C)c(-c2csc(Nc3ccc(Cl)cc3)n2)s1 (centres undefined) | -27 | 12% | 3 | 13 | 31
O=C(C1CCCN(S(=O)(=O)c2cnc[nH]2)C1)N1CC(=O)N(CCc2ccccc2)C(=O)C1 (centres undefined) | -3 | 5% | 7 | x | -7
CC(C)(CNC(=O)c1ccc(NS(=O)(=O)c2ccc(F)c(F)c2)cc1)N1CCOCC1 | x | x | -11 | -1.3 | x
CCOC(=O)c1cc2c(nc1NC(=S)Nc1ccccc1)CC(C)(C)OC2 | 0 | 20% | -2 | -2.6 | -20
C#CCNC(=O)C1=C[C@H](C(C)(C)C)C[C@H](OCCCCO)O1 | x | -9% | -6 | -0.8 | x
CCN(CC)CCNC(=O)c1ccc2c(c1)NC(=O)c1ccccc1S2 | x | x | 6 | -1.3 | x
CCOC(=O)C1CCN(C2=NC(=O)/C(=C/c3ccc(Cl)cc3)S2)CC1 | x | x | 2 | 7.7 | x
Cc1ccc(-c2c(C(=O)N/N=C/c3ccco3)nnn2-c2nonc2N)cc1 | x | x | -12 | 6.2 | x
Cc1n[nH]c(C)c1S(=O)(=O)N1CCN(C(=O)c2ccco2)CC1 | 6 | 2% | 0 | 1.3 | -43
c1ccc2c(c1)CCOC2CNCCCN1CCCCC1 (centres undefined) | -14 | -6% | x | -0.8 | 8
COc1ccc(-c2csc(NC(=O)CCCc3cccs3)n2)cc1 | -7 | -4% | -8 | 3.1 | -29
Cn1nnc2cc(C(=O)NC3CCCCC3)ccc21 | -2 | -10% | 5 | 0.4 | 13
CC1=NN(C(=O)c2ccc(Cn3ccc([N+](=O)[O-])n3)cc2)C(O)(C(F)(F)F)C1 (centres undefined) | 11 | 1% | 7 | 0.9 | -28

2 successive compounds out of the list so far, quoted:
SMILES | Arbovirus anti | Mtb H37Rv | Mtb bLac sens | RecA intein inh | YopH inh | others
Cn1nnc2cc(C(=O)NC3CCCCC3)ccc21 | -2 | -10% | 5 | 0.4 | 13
CC1=NN(C(=O)c2ccc(Cn3ccc([N+](=O)[O-])n3)cc2)C(O)(C(F)(F)F)C1 (centres undefined) | 11 | 1% | 7 | 0.9 | -28

(cont.)
SMILES | Arbovirus anti | Mtb H37Rv | Mtb bLac sens | RecA intein inh | YopH inh | others
Nc1nc(Nc2ccccc2)nc(NCCO)c1[N+](=O)[O-] | x | 4% | 1 | -0.2 | x
Cc1ccc(S(=O)(=O)NCc2c(Cl)cccc2Oc2ccccc2)cc1 | x | -1% | 10 | 0.7 | x
Cc1ccccc1NC(=O)CCCN1C(=O)C2CC=CCC2C1=O (centres undefined) | x | x | -13 | -4.4 | x
Cc1ccccc1Cn1c2ccccc2c2cnn(CC(=O)N3CCN(c4ccccc4)CC3)c(=O)c21 | 6 | 11% | x | x | -12
CCCCNC(=O)CSc1cc(=O)n(C)c2ccccc12 | 0 | -13% | -7 | 0.2 | -45
COC(=O)c1ccc2nc(NC(=O)C3CC3)sc2c1 | x | x | -1 | 1.3 | x
COc1ccc(/C=N/NC(=O)CCC(=O)Nc2ccc(Br)cc2)c(OC)c1 | x | x | -3 | -0.8 | x
O=S(=O)(c1ccc(Cl)cc1)N(CCCN1CCOCC1)Cc1cccs1 | 12 | -1% | -3 | 4.1 | x
Cc1nc(-c2ccc(F)cc2)c(CC(=O)N2CCN(S(=O)(=O)c3ccccc3Br)CC2)s1 | x | x | -2 | 0.7 | x
CC(=O)c1ccc(OC(=O)CCN2c3ccccc3Sc3ccccc32)cc1 | 6 | -6% | -4 | 1.2 | -19
O=C(Nc1ccc(S(=O)(=O)N2CCOCC2)cc1)c1nn(-c2ccc(F)cc2)ccc1=O | x | x | -4 | -0.5 | x
O=C(/C=C/c1ccccc1)Nc1cccc(S(=O)(=O)Nc2ccccc2F)c1 | 18 | 38% | 82 | 2.9 | 0
COC(=O)CSc1nc(C)c2ccc(OC)cc2n1 | -1 | 3% | 0 | 0.5 | -13
CC(C)C(=O)Nc1cccc(C(=O)Nc2nccs2)c1 | 4 | 11% | -10 | 17 | -38
Cc1csc(SC(C)C(=O)Nc2ccc(Cl)cn2)n1 (centres undefined) | 4 | 8% | -9 | 1.1 | -61
CCCNC(=O)CSc1nc(-c2cccs2)cc(C(F)(F)F)n1 | 1 | -12% | 5 | -2.7 | -7
Cc1c(NC(=O)c2cn3ccccc3n2)cccc1-n1cnnn1 | x | -1% | -10 | 1.8 | x
CC1CCCC(C)N1S(=O)(=O)c1ccc(NC(=O)CNC2CCCC2)cc1 (centres undefined) | x | x | -6 | 2.1 | x
O=[N+]([O-])c1ccc(-c2c(O)c3ccccc3c3nc4ccccc4nc23)cc1 | 32* | 1% | 6 | -2.5 | x
O=C(N/N=C/c1ccccn1)C(=O)N1CCCCCC1 | x | -2% | -1 | -2.6 | x

Sorted by count of non-hydrogen atoms (lowest first): part of the list above.
SMILES | Arbovirus anti | Mtb H37Rv | Mtb bLac sens | RecA intein inh | YopH inh | others
CCC(C)C(=O)Nc1nc(C)c(-c2csc(Nc3ccc(Cl)cc3)n2)s1 (centres undefined) | -27 | 12% | 3 | 13 | 31
COc1cc(NC(=O)CSCc2ccc(Cl)cc2Cl)c(C(=O)O)cc1OC | x | x | 7 | -0.7 | x
CCN(c1ccccc1)S(=O)(=O)c1ccc(NC(=O)c2nc(S(C)(=O)=O)ncc2Cl)cc1 | x | x | -1 | 2.7 | x

(list continues)
SMILES | Arbovirus anti | Mtb H37Rv | Mtb bLac sens | RecA intein inh | YopH inh | others
Cc1ccc(-n2ncc3c(N4CCN(c5ccccc5)CC4)ncnc32)c(C)c1 | -3 | 6% | -1 | 1.2 | -12
CC(C(=O)N1CCc2ccccc21)N1CCN(Cc2ccc(Cl)cc2)CC1 (centres undefined) | x | x | 9 | 0.1 | x
O=C(CCN1C(=O)/C(=C/C=C/c2ccccc2)SC1=S)Nc1nccs1 | 2 | x | -6 | -1.4 | -14
O=C(O)c1ccc2c(c1)C(=O)N(c1cc(C(=O)O)ccc1Br)C2=O | 2 | -6% | 4 | -1.5 | -43
Cc1ccc2c(CC(=O)NCc3cccs3)coc2c1 | -12 | 14% | 10 | 6.4 | -30
CNC(=S)N(Cc1ccc(OC)cc1)Cc1cc2cc(C)ccc2[nH]c1=O | -15 | -11% | 0 | -0.7 | x
CN1CCN(Cc2cc(=O)oc3ccc(Cl)cc23)CC1 | 10 | 16% | 2 | 48* | -21
CCCCn1c(N)c(N(CCOC)C(=O)c2cc(C)oc2C)c(=O)[nH]c1=O | x | x | 0 | 1.7 | x
O=C(NCc1ccccn1)c1cc(-c2ccncc2)nc2ccccc12 | x | x | -1 | -1.5 | x
COc1ccccc1CN1CCNC(=O)C1CC(=O)NC1CCCCCC1 (centres undefined) | x | x | -8 | 0.5 | x
O=C(Nc1ccccc1)c1cc([N+](=O)[O-])ccc1NC1CCCCC1 | -7 | -3% | 6 | 6.6 | -18
Cc1cc(C)c2c(=O)[nH]c(SCc3ccc([N+](=O)[O-])cc3)nc2n1 | 2 | -2% | -4 | x | x
COc1ccc(NC(=O)CC2C(=O)N(C)C(=S)N2CCc2ccccc2F)cc1 (centres undefined) | -17 | 5% | -2 | 6.3 | x
CCOc1ccc(Nc2nc(Cl)nc(NCCO)n2)cc1 | -7 | 3% | -2 | -0.2 | -28
C=CCNc1nc2ccccc2nc1NS(=O)(=O)c1ccc(OC)cc1 | x | x | -1 | 5.0 | x
Cc1cccc(NC(=O)CCSc2ccccn2)c1 | -3 | -6% | -3 | 1.7 | -22
O=C(CSc1nnc2ccc(-c3ccncc3)nn12)Nc1ccc(F)cc1 | x | x | 11 | -11 | x
Cc1nc(SCC(=O)NCC2CCCO2)[nH]c(=O)c1C (centres undefined) | x | x | -3 | -3.5 | x
CC(C)CN(CC(C)C)C(=O)c1cc2c(=O)n3ccccc3nc2s1 | x | x | 10 | -29 | x
Cc1onc(-c2c(Cl)cccc2Cl)c1C(=O)c1c[nH]c(C(=O)NC2CC2)c1 | 10 | 0% | -4 | 5.8 | -40
O=C(CSc1ncccc1-c1nc2ccccc2[nH]1)N1CCc2ccccc21 | -10 | 8% | -7 | 0.6 | -24
O=C(Oc1ccccc1OC(=O)N1CCOCC1)N1CCOCC1 | 14 | x | -4 | 1.2 | -40
CC(C)CCNC(=S)NC1CCCC1 | 1 | -2% | 8 | 0.0 | -20
COc1cc(C)nc(OCCNC(=O)COc2ccc(Cl)cc2Cl)n1 | 8 | -5% | -4 | -0.3 | -39
O=C1N/C(=N/N=C/c2ccc(O)cc2)SC1Cc1ccccc1 (centres undefined) | x | -8% | 19 | -3.4 | x
CN(CCOC(=O)c1ccc2c(c1)OCCO2)Cc1ccccc1 | 2 | 2% | -5 | 2.5 | 1
CCOc1ccc(NCc2cccn2-c2nnc(N3CCC(C(=O)NCCCN4C(C)CCCC4C)CC3)s2)cc1 (centres undefined) | x | x | 87 | -4.0 | x

Entries from the list above that contain a CF3 group:
SMILES | Arbovirus anti | Mtb H37Rv | Mtb bLac sens | RecA intein inh | YopH inh | others
CN(CC(=O)Nc1ccc(Cl)c(C(F)(F)F)c1)C(=O)C1CSC2(C)CCC(=O)N12 (centres undefined) | x | x | 2 | 6.3 | x
CC1=NN(C(=O)c2ccc(Cn3ccc([N+](=O)[O-])n3)cc2)C(O)(C(F)(F)F)C1 (centres undefined) | 11 | 1% | 7 | 0.9 | -28
CCCNC(=O)CSc1nc(-c2cccs2)cc(C(F)(F)F)n1 | 1 | -12% | 5 | -2.7 | -7

Compound activity (PubChem)
